# Ecoli growth = inhibitors of Escherichia coli growth | AID 1053175 | OD600, 23 h; active compounds read low | OD600 absorbance (no concentration beside the values) | 330,000 tested, 0.21% active;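 active means OD600 absorbance below the run mean of sample wells minus 3.6 SD, in any replicate, cut at about 0.56 in these data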;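 further: stock transfer was 300 nL into about 60 µL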
# UCH37 DUB inh = blocks the human deubiquitinase UCH37; Q9Y5K5; purified proteasome/UCH37, Ub-AMC cleavage fluorescence; inhibition, % (concentration not given with the values); 330,000 tested, 0.33% active; AID 588478;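 active means mean of two replicates above 20%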;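 further: 0% = compound-free wells with enzyme and 100% = wells lacking proteasome; stock transfer was 100 nL into about 20 µL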
#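 Test system – human UCH37 enzyme supplied as purified proteasome complex · Incubation – 30 min preincubation with enzyme, 25 min cleavage at room temperature · Detection – AMC fluorescence from Ub-AMC cleavage, excitation 355 nm, emission 460 nm · Benchmarks – no-proteasome wells (full inhibition) and compound-free wells (no inhibition)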
# Beta2AR agonist = agonists of human beta-2 adrenergic receptor inducing internalization; 340,000 tested, 0.43% active; Am2.2-beta2AR cells, FAP receptor internalization, flow cytometry; reference of the scale not given here; response, % (no concentration beside the values); AID 504454;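 active means response above a set limit, near 3 SD of response in nonfluorescent compounds, cut at about 42% in these data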;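 further: stock transfer was 100 nL into about 11 µL; a reference agonist was the positive control; negative values mostly stem from fluorescent compounds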
# Target sequence (P07550 whole entry, looked up): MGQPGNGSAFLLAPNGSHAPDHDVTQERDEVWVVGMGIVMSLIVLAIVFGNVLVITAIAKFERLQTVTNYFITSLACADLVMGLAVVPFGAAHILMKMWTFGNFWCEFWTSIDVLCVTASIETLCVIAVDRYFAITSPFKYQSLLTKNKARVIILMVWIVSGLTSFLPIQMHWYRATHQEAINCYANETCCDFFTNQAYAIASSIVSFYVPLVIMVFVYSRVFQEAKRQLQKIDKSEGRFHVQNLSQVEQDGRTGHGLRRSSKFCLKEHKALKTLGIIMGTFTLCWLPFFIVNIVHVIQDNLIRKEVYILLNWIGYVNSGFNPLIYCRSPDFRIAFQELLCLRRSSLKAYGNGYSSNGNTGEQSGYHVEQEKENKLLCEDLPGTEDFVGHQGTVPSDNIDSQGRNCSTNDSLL
# LANA-H2B inh = blocks KSHV LANA binding to histone H2A/H2B. Q9QR71. cell-free LANA-H2A/H2B peptide, fluorescence polarization. inhibition, % (concentration not given with the values). 320,000 tested, 0.6% active; in the data active means inhibition mostly above about 10%, no sharp cut-off; inactive means mostly below about 6.7%;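 further: stock transfer was 7.5 nL into about 10 µL; 0% = median of vehicle wells and 100% = median of positive control wells; one replicate is shown; the record names a cut of 25% in any replicate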
# ALR H2O2 inh = human ALR oxidase inhibition via reduced H2O2; inhibition, % (test concentration not listed); 290,000 tested, 3.8% active; purified ALR, DTT oxidation, H2O2 HRP-luminol luminescence; AID 485317; P55789;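 active means mean and each replicate at 75% or more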;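 further: stock transfer was 7.5 nL into about 7.5 µL; 0% = neutral wells and 100% = wells with inactivated enzyme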
# Target sequence (P55789 whole entry, looked up): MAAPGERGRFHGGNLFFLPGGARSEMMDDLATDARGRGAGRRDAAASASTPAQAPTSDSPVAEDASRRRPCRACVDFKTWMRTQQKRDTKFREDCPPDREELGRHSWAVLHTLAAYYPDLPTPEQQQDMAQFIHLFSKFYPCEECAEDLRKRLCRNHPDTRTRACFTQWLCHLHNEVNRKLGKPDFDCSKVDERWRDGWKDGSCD
# HNF4A DNA FP = change in binding of human HNF4 alpha to DNA; P41235; HNF4a-FITC DNA binding, fluorescence polarization, 1 h; activity change, % at 10 µM; 360,000 tested, 0.3% active; in the data active means activity change above about 30%, passing the limit was not always enough;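 further: controls were the assay level and a saturating level of protein; the project sought stronger binding though the title names inhibitors; some compounds called inactive have numbers as strong as hits; positive values seem to mean higher polarization but the record does not say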
# FGF22 binding = shifts melting point of recombinant human FGF22; calls only at 9.99 µM; 340,000 tested, 1.5% active; recombinant FGF22 thermal shift, SYPRO orange fluorescence; percent of sucrose octasulfate shift, DMSO zero; Q9HCT0;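 active means melting point raised past a set limit in the mean and every replicate; three in four hits are not shown here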
# Target sequence (Q9HCT0 whole entry, looked up): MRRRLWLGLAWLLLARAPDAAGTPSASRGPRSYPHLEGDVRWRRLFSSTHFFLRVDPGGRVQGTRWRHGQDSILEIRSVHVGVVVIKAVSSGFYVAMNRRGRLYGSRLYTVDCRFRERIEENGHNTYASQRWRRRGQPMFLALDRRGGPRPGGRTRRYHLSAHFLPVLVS
# * marks the source's active call; other numbers are inactive results; i = inactive; · = no result given. This is a subset; count on the stated rates, not on these rows.
no. | structure | Ecoli growth | UCH37 DUB inh | Beta2AR agonist | LANA-H2B inh
1 | COc1cccc(C(=O)NC2CC3CCCC(C2)N3CC(=O)Nc2ccc(N(C)C)cc2)c1 (centres undefined) | 0.699 | 2.8 | 4.2 | 27.0*
2 | O=C(Nc1ccc(N2CCOCC2)cc1)C1=NN(c2ccccc2)C(=O)CC1 | 0.699 | 5.4 | 6.4 | ·
3 | CCCCOc1ccc(NC(=O)CCSc2nccn2C)cc1 | 0.713 | 1.5 | -21.4 | -1.1
4 | COc1cccc(CN(C)Cc2cc(=O)oc3cc(O)c(Cl)cc23)c1 | 0.624 | i | 0.5 | -2.8
5 | O=C(NC1CC1)C1CCN(C2CCN(C(=O)Cc3ccc4c(c3)OCO4)CC2)CC1 | 0.617 | 1.4 | 8.6 | 3.8
6 | CC(=C\C(=O)O)/C(=C/c1ccc(C)o1)C(=O)O | 0.647 | 5.4 | 4.6 | ·
7 | CC(=NNC(N)=O)C1=C(O)C(C(C)C)NC1=O (centres undefined) | · | · | 5.2 | ·
8 | CCOCC(=O)Nc1cccc(-c2nc3cccnc3s2)c1C | 0.749 | -1.0 | -16.6 | 0.8
9 | COC(=O)c1ccccc1NC(=O)Cn1nc(C(F)(F)F)c2c1CCC2 | 0.677 | -1.5 | -0.9 | -1.3
10 | CCC(=O)N1CCc2cc(S(=O)(=O)NCCC(=O)N3CCN(c4cccc(OC)c4)CC3)ccc21 | 0.684 | 1.5 | -7.9 | -1.8

no. | ALR H2O2 inh | HNF4A DNA FP | FGF22 binding
1 | · | -2.0 | ·
2 | · | 1.3 | i
3 | 23.6 | -1.2 | i
4 | · | 1.6 | i
5 | 3.2 | 2.2 | i
6 | · | -10.5 | i
7 | · | 3.6 | i
8 | -11.6 | -3.6 | i
9 | -0.7 | -1.1 | ·
10 | 33.7 | 2.3 | i

# Other results:
no. | structure | Ecoli growth | UCH37 DUB inh | Beta2AR agonist | LANA-H2B inh
11 | Cc1ccc(C(c2nnnn2Cc2ccccc2)N2CCN(Cc3ccccc3)CC2)cc1 (centres undefined) | 0.7 | -0.4 | -5.2 | 4.0
12 | CCCc1cc(C(=O)NCC(C)C)no1 | 0.708 | 4.9 | -2.8 | 0.2
13 | c1ccc(-c2nc[nH]c2-c2ccccc2)cc1 | 0.67 | -0.1 | 0.2 | ·
14 | COCCCNC(CC(=O)Nc1cc(C)cc(C)c1)C(=O)O (centres undefined) | 0.706 | 5.7 | -6.4 | 0.6
15 | COc1ccc(CCNC(=O)Cc2c(Cl)cccc2Cl)cc1 | 0.629 | 3.1 | 4.0 | 3.9
16 | CCN(CC(=O)Nc1c(F)cccc1F)C(=O)CSc1nc2ccccc2o1 | 0.635 | 3.8 | -4.3 | 0.0
17 | COc1ccc(C(=O)N/C(=C\c2ccccc2)C(=O)Nc2cccc(C(=O)O)c2)cc1 | 0.711 | 3.8 | -5.5 | -5.3
18 | CCOc1ccccc1NC(=O)c1ccccc1N(C)S(C)(=O)=O | 0.759 | 5.2 | 3.6 | -4.9
19 | Cc1cc(NC(=O)c2noc3c2CCc2ccccc2-3)no1 | 0.807 | 2.1 | 2.4 | 3.2
20 | Cn1c(=O)c2c(nc(Sc3ncccn3)n2Cc2ccc(Cl)cc2)n(C)c1=O | 0.792 | 1.3 | -16.9 | 1.5

no. | ALR H2O2 inh | HNF4A DNA FP | FGF22 binding
11 | -4.3 | 194.6 | ·
12 | 17.0 | 2.3 | i
13 | · | 0.6 | ·
14 | -18.3 | -7.7 | i
15 | · | -3.3 | i
16 | · | -0.5 | i
17 | 9.3 | -0.2 | ·
18 | -9.3 | 0.5 | ·
19 | -11.3 | -0.3 | i
20 | · | -1.1 | i

# Copied from the list:
# UCH37 DUB inh, compound 15 → 3.1
# HNF4A DNA FP, compound 20 → -1.1
# UCH37 DUB inh, compound 13 → -0.1
# HNF4A DNA FP, compound 11 → 194.6
# Ecoli growth, compound 18 → 0.759
# UCH37 DUB inh, compound 14 → 5.7

# Reprinted at random: two compounds from above.
no. | structure | Ecoli growth | UCH37 DUB inh | Beta2AR agonist | LANA-H2B inh
16 | CCN(CC(=O)Nc1c(F)cccc1F)C(=O)CSc1nc2ccccc2o1 | 0.635 | 3.8 | -4.3 | 0.0
20 | Cn1c(=O)c2c(nc(Sc3ncccn3)n2Cc2ccc(Cl)cc2)n(C)c1=O | 0.792 | 1.3 | -16.9 | 1.5

no. | ALR H2O2 inh | HNF4A DNA FP | FGF22 binding
16 | · | -0.5 | i
20 | · | -1.1 | i

# Continued.
no. | structure | Ecoli growth | UCH37 DUB inh | Beta2AR agonist | LANA-H2B inh
21 | COc1ccccc1C(=O)NC(=O)COc1ccc(Cl)cc1Cl | 0.629 | 0.7 | -2.3 | -5.3
22 | COC(=O)c1ccsc1NC(=O)c1ccc2c(c1)OCCO2 | 0.766 | -63.0 | -3.3 | 0.1
23 | Cc1ccccc1C(=O)NNC(=O)c1ccc(Br)cc1 | 0.648 | 0.6 | 2.9 | 1.1
24 | Cc1ccc(N=Nc2c(N)n(-c3ccccc3)[nH]c2=O)cc1 | 0.72 | 4.5 | 6.3 | 4.4
25 | CCOc1cc(C=NNC(=O)CCCC(=O)NN=Cc2ccc(O)c(OCC)c2)ccc1O | · | · | -5.8 | ·
26 | CCc1cccc(C)c1NS(=O)(=O)c1c(C)nc2sccn2c1=O | 0.689 | 5.2 | 12.8 | -4.6
27 | O=C(Nc1ccccc1N1CCN(c2ccc(F)cc2)CC1)C12CC3CC(CC(C3)C1)C2 | 0.658 | 0.9 | 18.3 | 4.4
28 | CC(=O)c1cccc(NC(=O)C(NC(C)C)c2ccccc2)c1 (centres undefined) | 0.686 | -1.3 | -3.4 | 2.8
29 | CN(C(=O)c1sc2nc(N3CCOCC3)c3c(c2c1N)CCCC3)c1ccccc1 | 0.703 | -121.2 | 15.5 | -0.5
30 | COc1cccc(C(=O)NC2CCNCC2)c1 | 0.651 | 5.0 | 13.5 | 5.0

no. | ALR H2O2 inh | HNF4A DNA FP | FGF22 binding
21 | -22.3 | 4.0 | i
22 | 0.4 | 0.8 | i
23 | -4.6 | 3.7 | i
24 | 0.5 | -0.3 | ·
25 | · | -2.0 | i
26 | -6.3 | -0.2 | i
27 | · | 3.5 | ·
28 | · | 4.0 | i
29 | -26.7 | -0.6 | i
30 | -30.7 | -2.1 | i

# Another view of some results above:
24) Cc1ccc(N=Nc2c(N)n(-c3ccccc3)[nH]c2=O)cc1
  Ecoli growth: 0.72
  UCH37 DUB inh: 4.5
  Beta2AR agonist: 6.3
  LANA-H2B inh: 4.4
  ALR H2O2 inh: 0.5
  HNF4A DNA FP: -0.3
  FGF22 binding: ·
27) O=C(Nc1ccccc1N1CCN(c2ccc(F)cc2)CC1)C12CC3CC(CC(C3)C1)C2
  Ecoli growth: 0.658
  UCH37 DUB inh: 0.9
  Beta2AR agonist: 18.3
  LANA-H2B inh: 4.4
  ALR H2O2 inh: ·
  HNF4A DNA FP: 3.5
  FGF22 binding: ·

# Further results follow:
no. | structure | Ecoli growth | UCH37 DUB inh | Beta2AR agonist | LANA-H2B inh
31 | COC(=O)c1cc2ccsc2n1CC(=O)Nc1cc(Cl)ccc1OC | 0.694 | 0.1 | -8.3 | 5.0
32 | CCNS(=O)(=O)c1ccc(CCC(=O)Nc2ccc(C(=O)OC)cc2)cc1 | 0.706 | 0.5 | 13.9 | 3.5
33 | CCC(C)N(C(=O)CSc1ncnc2sccc12)C1CCS(=O)(=O)C1 (centres undefined) | 0.69 | 2.5 | -0.6 | 3.3
34 | C[C@H](CO)N1C[C@H](C)[C@@H](CN(C)C(=O)Nc2ccccc2)Oc2c(NC(=O)NC3CCCCC3)cccc2C1=O | · | 5.7 | 9.8 | 7.3
35 | Cc1nc(NC(=O)c2ccccc2O)sc1C | 0.659 | -15.4 | -9.1 | -2.8
36 | CCSc1nnc(NC(=O)c2c(-c3ccccc3Cl)noc2C)s1 | 0.695 | 2.1 | 10.5 | -9.7
37 | COc1ccc(S(=O)(=O)N2CCC(C(N)=O)CC2)cc1 | 0.715 | 5.6 | 8.4 | -0.1

no. | ALR H2O2 inh | HNF4A DNA FP | FGF22 binding
31 | -6.7 | 1.8 | ·
32 | -0.2 | 0.1 | i
33 | -2.4 | 0.5 | i
34 | 0.2 | 2.9 | i
35 | -5.2 | -0.3 | i
36 | -1.1 | -1.1 | ·
37 | -10.6 | 2.4 | i

# Down the list, as entered above:
# FGF22 binding for nos. 31 to 37, in order: ·, i, i, i, i, ·, i
# UCH37 DUB inh for nos. 31 to 37, in order: 0.1, 0.5, 2.5, 5.7, -15.4, 2.1, 5.6

# High-throughput results (PubChem)
